Mtb hypoxia rep – PubChem AID 1159583. M. tuberculosis hypoxia-regulated fluorescent reporter, fluorescence. 300,000 compounds, 0.1% hits. fluorescence inhibition, % (concentration not given with the values);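 active = 35 to 45% if threefold the growth effect, above 45% if 1.5-fold the growth effect; inactive = the rest, general growth blockers included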;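 note: wells of about 50 µL received 100 nL stock; 0% = vehicle wells and 100% = reference inhibitor wells; whole bacteria with a GFP reporter of the hypoxia response; strong numbers were not always called active; many hits fall short of the cut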
PrP UTR inh – inhibition of PrP 5' UTR reporter expression; 340,000 compounds, 0.35% hits; cell-based PrP 5' UTR mRNA reporter, plate reader; inhibition, % (no concentration beside the values);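 active = every replicate at 50% or more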;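 note: 0 = median of the neutral control wells; tested in H4 reporter cells; numbers are from one replicate; inactives centre near -14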
BJeLR viability – MLPCN primary cell-based screen for lethality selective to Ras in HRASV12 cells; BJeLR (HRASV12) viability, CellTiter-Glo ATP luminescence, 48 h; reference of the scale not given here; inhibition, % (no concentration beside the values); 300,000 compounds, 0.17% hits; AID 1554, 2009;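 active = replicate mean above 50%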;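 note: 50 nL library stock added to about 25 µL; numbers are from one replicate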
ugtP null kill – growth inhibition of ugtP-null S. aureus, primary screen, RN4220 ugtP deletion, OD600; 16 h; some inactives read as strong as hits; growth inhibition, % (concentration not given with the values); 330,000 compounds, 0.54% hits; AID 1259309, 2017;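 active = z-score under -3 and OD600 up to 0.15 on both plates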;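 note: plate controls were untreated wells for no effect and antibiotic for full effect; wells of about 80 µL received 100 nL stock; the first replicate is given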
Autofluor counter – compound fluorescence in toxin protease inhibitor counterscreen | compound autofluorescence counterscreen, microsphere flow cytometry; hits give high values | fluorescence intensity (concentration not given with the values) | 360,000 compounds, 3.1% hits | AID 624483;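 active = at least 3 SD above the mean of all compounds, about 16000 in these data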;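 note: 100 nL of 1 mM stock went into each well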
RN4220 kill – growth inhibition of S. aureus RN4220, primary screen, OD600 | 16 h | inhibition, % (test concentration not listed) | 330,000 compounds, 0.33% hits;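 active = z-score of -3 or lower and OD600 up to 0.18 on both plates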;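 note: plate controls were untreated cells for no effect and reference antibiotic for full effect; stock transfer was 100 nL into about 80 µL; one replicate is shown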
Mtb hypoxia rep growth – also measured in Mtb hypoxia rep; calls as there; growth inhibition, %; measured here: M. tuberculosis growth (absorbance);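 0% = vehicle and 100% = reference antibiotic; read after six days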
* = called active by the depositor; · = no result given.

SMILES | Mtb hypoxia rep | Mtb hypoxia rep growth | PrP UTR inh | BJeLR viability | ugtP null kill | Autofluor counter | RN4220 kill
Cc1ccc(NS(=O)(=O)c2cccc([N+](=O)[O-])c2)nc1 | 12 | 1 | -9 | -4 | 2 | 3295 | 5.3
O=C(O)/C=C\C(=O)Nc1cccc(NC(=O)c2ccccc2)c1 | 3 | 3 | -16 | 7 | -4 | 5074 | 0.1
CC(C)CC1=NN(C(=O)c2ccco2)C(O)(C(F)(F)F)C1 (stereo not drawn) | -3 | -28 | -23 | 5 | 2 | 4355 | 3.8
COc1ccc(CN(CC(=O)NCC2CCCO2)C(=O)CCC(=O)Nc2cc(C)on2)cc1 (stereo not drawn) | 5 | 10 | 3 | -6 | 8 | 2296 | 4.6
CC(C)c1nc2sc3c(NCc4ccccc4)ncnc3c2c2c1COC(C)(C)C2 | 6 | 3 | 2 | -2 | 62 | 3224 | -4.1
N#Cc1ccsc1NC(=O)COC(=O)CCS(=O)(=O)c1ccccc1 | 4 | 2 | 8 | · | -8 | 2838 | -1.6
O=C1c2ccccc2S(=O)(=O)N1Cc1cc(=O)n2ccsc2n1 | · | · | -21 | 4 | · | 4015 | ·
CN(C)Cc1c(C(=O)N/N=C/c2ccco2)nnn1-c1nonc1N | · | · | -10 | -3 | · | 5406 | ·
COc1cccc(C=NNC(=O)CCc2n[nH]c(=O)[nH]c2=O)c1O | 4 | -1 | · | · | 5 | · | 2.5
COC(=O)c1ccc(CNC(=O)COC(=O)c2cccs2)cc1 | 8 | 9 | -21 | · | 0 | 3973 | 3.3
CCC(=O)N1CCN(c2ccc(NC(=O)COc3ccccc3[N+](=O)[O-])cc2)CC1 | 15 | 6 | -33 | 8 | 6 | 4868 | 3.9
O=C1CC(/C=C/c2ccccc2)(C(=O)NC2CCCC2)N1c1ccc(S(=O)(=O)N2CCCC2)cc1 (stereo not drawn) | 3 | 0 | -23 | -4 | 5 | 7055 | 3.1
O=S(=O)(c1ccc(OC(F)(F)F)cc1)N1CCCC(c2ccccc2)C1 (stereo not drawn) | 8 | 5 | -2 | -1 | 4 | 2735 | -0.3
Cc1ccc(CN(C(=O)c2ccco2)C2CCS(=O)(=O)C2)cc1 (stereo not drawn) | 0 | 2 | -11 | -5 | -3 | 6478 | 2.0
O=C(CSc1nnc(CNC(=O)c2c(F)cccc2Cl)o1)Nc1ccccc1 | 3 | 9 | -12 | -4 | 1 | 3351 | 2.3
Cc1nn(-c2cccc([N+](=O)[O-])c2)c(N)c1-c1ccccc1 | 4 | 9 | -66 | -4 | -3 | 4025 | 5.6
N#Cc1cc([N+](=O)[O-])ccc1N1CCCC1 | 2 | 14 | -8 | -11 | -2 | 2205 | 5.4
Cc1c(-c2ccccc2)oc2c(C(=O)N3CCN(c4ccc([N+](=O)[O-])cc4)CC3)cccc2c1=O | -2 | -1 | 1 | 6 | 53 | 2153 | 8.6
Cc1ccc(C=NN=Cc2ccc(C)cc2)cc1 | 9 | -3 | · | · | 10 | · | 2.2
Cc1ccc(NS(=O)(=O)c2ccc(C(C)(C)C)cc2)cn1 | -9 | -1 | -8 | -1 | 1 | 3469 | 1.4

Of the compounds above, 3 have fluorine.
SMILES | Mtb hypoxia rep | Mtb hypoxia rep growth | PrP UTR inh | BJeLR viability | ugtP null kill | Autofluor counter | RN4220 kill
CC(C)CC1=NN(C(=O)c2ccco2)C(O)(C(F)(F)F)C1 (stereo not drawn) | -3 | -28 | -23 | 5 | 2 | 4355 | 3.8
O=S(=O)(c1ccc(OC(F)(F)F)cc1)N1CCCC(c2ccccc2)C1 (stereo not drawn) | 8 | 5 | -2 | -1 | 4 | 2735 | -0.3
O=C(CSc1nnc(CNC(=O)c2c(F)cccc2Cl)o1)Nc1ccccc1 | 3 | 9 | -12 | -4 | 1 | 3351 | 2.3

Continuation:
SMILES | Mtb hypoxia rep | Mtb hypoxia rep growth | PrP UTR inh | BJeLR viability | ugtP null kill | Autofluor counter | RN4220 kill
O=C(NCCCn1ccnc1)c1nn2c(C(F)(F)F)cc(-c3ccccc3)nc2c1Cl | 7 | 4 | -2 | -3 | 3 | 2129 | 5.2
O=C(Nc1cccc2cccnc12)c1cc(F)c(F)cc1Cl | -1 | 8 | -9 | -9 | 0 | 3481 | -1.2
CCCCCn1c(=O)c(C(=O)Nc2c(C)n(C)n(-c3ccccc3)c2=O)c(O)c2ccccc21 | · | · | -7 | 8 | 16 | 3447 | 12
CCOc1ccc(OCCC(=O)N2CCc3cc(OC)c(OC)cc3C2)cc1 | 10 | 10 | -24 | 8 | 8 | 3738 | 15
O=C(COc1ccccc1)OCC(=O)N1CCCc2ccccc21 | 1 | 6 | -18 | 4 | 3 | 5393 | 1.0
C=CCNC(=O)C1CCN(c2nc(C)cc(-c3ccccc3)n2)CC1 | 6 | 0 | -56 | -4 | -2 | 11294 | 2.6
COCCCNC(=O)c1cc(Sc2ccc(F)cc2)nc2ccccc12 | 9 | 7 | -18 | 3 | 10 | 9942 | 5.7
O=C(NC1CCN(Cc2ccccc2)CC1)c1ccc(CS(=O)c2ccc(F)cc2)o1 (stereo not drawn) | 12 | 15 | -26 | 9 | 12 | 6156 | 5.6
Cc1ccc(C(=O)NN=Cc2cccnc2)s1 | 12 | -4 | · | · | 0 | · | 3.6
CCOC(=O)/C(C#N)=C/c1cn(CCC(=O)O)nc1-c1ccc(Br)cc1 | -9 | -7 | -21 | -4 | 7 | 4250 | -2.8

Given with each value named: entries from further up
COCCCNC(=O)c1cc(Sc2ccc(F)cc2)nc2ccccc12
  Mtb hypoxia rep: 9	Mtb hypoxia rep growth: 7	PrP UTR inh: -18	BJeLR viability: 3	ugtP null kill: 10	Autofluor counter: 9942	RN4220 kill: 5.7
O=C(NC1CCN(Cc2ccccc2)CC1)c1ccc(CS(=O)c2ccc(F)cc2)o1 (stereo not drawn)
  Mtb hypoxia rep: 12	Mtb hypoxia rep growth: 15	PrP UTR inh: -26	BJeLR viability: 9	ugtP null kill: 12	Autofluor counter: 6156	RN4220 kill: 5.6
Cc1ccc(C(=O)NN=Cc2cccnc2)s1
  Mtb hypoxia rep: 12	Mtb hypoxia rep growth: -4	PrP UTR inh: ·	BJeLR viability: ·	ugtP null kill: 0	Autofluor counter: ·	RN4220 kill: 3.6
CCOC(=O)/C(C#N)=C/c1cn(CCC(=O)O)nc1-c1ccc(Br)cc1
  Mtb hypoxia rep: -9	Mtb hypoxia rep growth: -7	PrP UTR inh: -21	BJeLR viability: -4	ugtP null kill: 7	Autofluor counter: 4250	RN4220 kill: -2.8

Following part
SMILES | Mtb hypoxia rep | Mtb hypoxia rep growth | PrP UTR inh | BJeLR viability | ugtP null kill | Autofluor counter | RN4220 kill
CN(C)CCCOC(=O)c1ccc(Br)cc1 | 7 | 12 | -6 | -2 | 3 | 4518 | 1.4
OCC(O)C=NNc1nc(N2CCCCC2)nc(N2CCCCC2)n1 (stereo not drawn) | 11 | 8 | · | · | 13 | · | 0.2
COc1nc(OC)nc(N2CCC(C(=O)Nc3cccc4ccccc34)CC2)n1 | -1 | 3 | -23 | 2 | 7 | 23395* | -0.5
COC(=O)CC(NC(=O)c1cccs1)c1ccc(OC)c(OC)c1 (stereo not drawn) | 13 | 6 | -15 | -2 | -5 | 4657 | 7.1
COc1ccc(NC(=O)c2cccnc2)cc1 | 5 | 0 | -18 | 6 | 12 | 3239 | 4.5
COc1cccc(NC(=O)c2ccc3snnc3c2)c1 | 6 | -3 | -43 | -6 | 0 | 2936 | 6.8

This is a random part of the collection; any-hit rate near 4%.
